High-throughput results deposited in PubChem by National Center for Advancing Translational Sciences (NCATS).
AmpC inh no det – blocks E. coli AmpC beta-lactamase in absence of detergent; Potency, µM (highest dose often 28.7 µM), for inactives: at the highest dose activity change, negative = inhibition; AmpC nitrocefin hydrolysis, absorbance 480 nm, no detergent; potencies from a single point are estimates; actives 1.8% (n = 71,000); P00811; active = falling curve, for most hits resting on a single point; inconclusive = weak or doubtful change; inactive = flat or rising curve; note: % of control where 0% means no effect; about half of the hits show no inhibition at the top dose; a quarter of the inactives give rising signals
Target sequence (P00811 whole entry, looked up): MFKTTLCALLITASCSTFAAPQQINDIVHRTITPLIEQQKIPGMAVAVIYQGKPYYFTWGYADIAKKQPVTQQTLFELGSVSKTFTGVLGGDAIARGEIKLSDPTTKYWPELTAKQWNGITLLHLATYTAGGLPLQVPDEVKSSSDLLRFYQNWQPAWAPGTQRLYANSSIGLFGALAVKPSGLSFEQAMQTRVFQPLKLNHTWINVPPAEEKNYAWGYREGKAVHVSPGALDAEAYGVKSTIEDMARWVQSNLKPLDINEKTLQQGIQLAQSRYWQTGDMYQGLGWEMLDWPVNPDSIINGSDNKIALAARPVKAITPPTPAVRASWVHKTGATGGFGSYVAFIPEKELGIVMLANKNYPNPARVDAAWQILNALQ
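Enzyme, pH 7.0 phosphate. Compound titrations were pre-incubated with AmpC for 15 min at room temperature before nitrocefin (stock 800 uM) addition; product formation was recorded at 480 nm every 20 s for 4 min.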
* = called active by the depositor; ? = inconclusive; [ ] = dose if it differs, or a comment. Potency is the fitted concentration of half-maximal effect. The list is partial; rates above refer to the full screens.

nr	compound	AmpC inh no det
1	CC1CC(C)(C)Nc2ccc(OC(=O)c3ccco3)cc21 (stereo not drawn)	3%
2	CN(C)c1ccc(C2(c3ccc(N(C)C)cc3)OC(=O)c3cc(N(C)C)ccc32)cc1	1%
3	CN(C)c1ccc(-c2cncnc2Nc2ccc(F)cc2)cc1	53%
4	C=CCSc1nc2ccccc2c(=O)n1Cc1ccco1	-2%[5.75 µM]
5	C=CCOC(=O)C(C#N)c1nc2ccccc2nc1N1CCCC1 (stereo not drawn)	19%
6	CCOC(=O)Cc1csc(NC(=O)CS(=O)(=O)Cc2ccccc2)n1	41%
7	COc1ccc(-n2c(SCC(=O)N3CCCCC3C)nnc2-c2cccnc2)cc1 (stereo not drawn)	81%
8	Cn1c(Cn2c(=O)sc3ccccc32)nnc1SCC(=O)Nc1ccc(Cl)cc1	4µM*[single pt active]
9	Cc1cccc(NC(=O)c2c(O)c3cccc4c3n(c2=O)CCC4)n1	2%
10	Cc1sc2ncnc(SCC(=O)N3CCN(C(=O)c4ccco4)CC3)c2c1C	72%
11	Clc1ccc(C2CC(c3cccs3)n3ncnc3N2)c(Cl)c1 (stereo not drawn)	36%
12	O=C(O)COc1ccc(S(=O)(=O)c2ccc(OCC(=O)O)cc2)cc1	13%
13	O=C(COc1ccc(N2CC(C(=O)O)CC2=O)cc1)Nc1cccc(C(F)(F)F)c1 (stereo not drawn)	10%
14	Cn1cc(CNC(=O)COc2ccc(Cl)cc2Cl)cn1	16%
15	CCC(c1nnnn1C1CCCC1)N(Cc1cccs1)Cc1cc2cc(C)ccc2[nH]c1=O (stereo not drawn)	47%
16	O[C@@H]1C2CCCC1[C@]1(O)CCCCC1C2 (stereo partly drawn)	2%
17	O=C(C1CCN(c2nnc(-n3cccc3)s2)CC1)N1CCc2ccccc2C1	42%
18	O=C(C1CC1)N1CCc2cc(S(=O)(=O)N3CCCc4ccccc43)ccc21	15%
19	O=C1CCc2ccccc2O1	-7%
20	O=C(Cn1cnc2c(cnn2-c2ccc(Cl)cc2)c1=O)NCC1CCCO1 (stereo not drawn)	11%
21	Cc1ccc2c(c1)c1nc3ccccc3nc1n2CCN1CCOCC1	126%
22	Cc1cnc(CNc2ccnc(-c3cccc(C#N)c3)n2)cn1	7%
23	CCn1cc(C(=O)NCCCOC(C)C)c2cc(OC)c(OC)cc2c1=O	21%
24	CN1CCN(C(=O)c2ccc3c(c2)NC(=O)C(C)(C)O3)CC1	4%
25	COc1cccc(C2CC(c3cccc(Br)c3)n3ncnc3N2)c1 (stereo not drawn)	80%
26	CC(C)=CC(=O)OCC(=O)Nc1ccccc1Cl	-14%
27	O=C(O)CNS(=O)(=O)c1ccc(F)cc1	-4%
28	COC(=O)CNC(=O)[C@@]1(C)C=C[C@@H](Cc2ccccc2)N1C(=O)OC	54%
29	COc1ccc(N2CCN(C(=O)c3cccc(N4C(=O)C5CC=CC(C)C5C4=O)c3)CC2)cc1 (stereo not drawn)	108%
30	CCn1c(SCC(=O)Nc2ccc3c(c2)c2ccccc2n3CC)nnc1-c1ccco1	15%
31	CC(C)n1c(SCC(N)=O)nc2c1c(=O)n(C)c(=O)n2C	7%
32	CC(C)CN1CCC2(CC1)CCN(C(=O)c1ccncc1)CC2	6%
33	COC(=O)C(Cc1ccc(O)cc1)NC(=O)c1ccccc1OC (stereo not drawn)	5%
34	CCCN1CCN(C(=O)Cn2cccc2C(=O)c2ccccc2)CC1	0%
35	O=[N+]1C2=C(CCCC2)N([O-])C12CCCC2	-12%
36	COc1ccc(OCC(=O)Nc2cccc3ncccc23)cc1	12%
37	C/C=C/c1ccc(OCCCCn2cncn2)c(OC)c1	48%
38	CCC(Sc1nnnn1C)C(=O)Nc1ccc(C(C)=O)cc1 (stereo not drawn)	-5%
39	COc1ccc(CCN(C)Cc2ccncc2)cc1OC	-8%
40	O=C(C1CC1)N1CCN=C1SCc1ccc(F)cc1	22%
41	Cc1nnc(N2C(=O)c3oc4ccccc4c(=O)c3C2c2ccco2)s1 (stereo not drawn)	5%
42	Cn1c(SCC(N)=O)nnc1C1CCN(S(=O)(=O)c2ccccc2C(F)(F)F)CC1	13%
43	CCOC(=O)N1CCC(NC(=O)CCc2nc(-c3ccccc3F)no2)CC1	32%
44	CCOC(=O)c1sc(NC(=O)CSc2nnc(C)s2)c(C(=O)OCC)c1C	113%
45	CC(C)CCNC(=O)C(c1ccco1)N(Cc1ccccc1)C(=O)c1snc(C(N)=O)c1N (stereo not drawn)	12%
46	O=C(NCC1CCCO1)C1CCC(N2C(=O)c3ccccc3C2=O)CC1 (stereo not drawn)	2%
47	CCOC(=O)c1ccc(NC(=O)Nc2ccc(OC)c(OC)c2)cc1	3%
48	CCC(=O)Nc1ccc2oc(-c3cccc(C)c3)nc2c1	44%
49	COCCNC(=O)Cn1cc2c(n1)CCCCC2	-1%
50	COc1ccc(S(=O)(=O)Cc2ccc(C(=O)N3CCN(c4cccc(C)c4)C(C)C3)o2)cc1 (stereo not drawn)	111%
51	CC1=C/C(=C/N(C)c2ccccc2)C(=O)S1	-8%
52	C[C@H](CO)NC(=O)[C@H]1C[C@@H]1[C@H](NP(=O)(c1ccccc1)c1ccccc1)c1ccccc1	124%
53	CCCn1c(SCC(=O)NC(=O)Nc2ccc(C)cc2C)n[nH]c1=O	-10%
54	COCCNc1ncnc2ccc(-c3ccc(C(=O)N(C)C)cc3)cc12	1%
55	c1ccc2c(c1)oc1c(NCCCn3ccnc3)ncnc12	6%
56	O=C(c1cn(-c2ccccc2)nc1-c1ccncc1)n1nnc2ccccc21	7%
57	CCN1c2ccccc2-c2nc3ccccc3n2C1c1ccncc1 (stereo not drawn)	20%
58	NC(CSC12CC3CC(CC(C3)C1)C2)C(=O)O (stereo not drawn)	-10%
59	CCOC(=O)C1CCCN(C(=O)c2cn(CC(C)C)c(=O)c3cc(OC)c(OC)cc23)C1 (stereo not drawn)	58%
60	Nc1ncnc2c1ncn2C1CCCC1	1%

(further entries)
nr	compound	AmpC inh no det
61	CCOC(=O)CN(C(=O)c1ccccc1)c1ccccc1C	24%
62	CCOC(=O)CNC(=O)CSc1nnc(-c2ccccc2)n1Cc1ccco1	15%
63	COCc1c(CN)cnc(C)c1N	-3%
64	c1ccc2c(Cn3nnc4ccccc43)cccc2c1	-4%
65	CC1Cc2ccccc2N1C(=O)CSc1nc2c(c(=O)n(C)c(=O)n2C)n1Cc1ccccc1 (stereo not drawn)	111%
66	Cc1cc(C)nc(N2CCC(C(=O)NCc3cccs3)CC2)n1	21%
67	COc1cc(N=Nc2cccc(S(N)(=O)=O)c2)c2ccccc2c1N	1%[5.75 µM]
68	O=C(c1cc(S(=O)(=O)N2CCOCC2)c(Cl)cc1Cl)N1CCCCC1	43%
69	CSc1nnc(Cc2cc(=O)[nH]c(=O)[nH]2)n1-c1cc(C)ccc1C	-9%
70	O=C(NCCF)[C@H]1C[C@@H]1[C@H](NP(=O)(c1ccccc1)c1ccccc1)c1ccccc1	118%
71	C/C=C1\CC2C=CC1C2 (stereo not drawn)	-13%
72	COC(=O)c1ccc(NC(=O)CN2CCN(c3cccc(Cl)c3)CC2)cc1	58%
73	O=S(=O)(c1ccccc1)N1CCC2(CCCN(c3ncccn3)C2)CC1	45%
74	O=[N+]([O-])c1cccc(/C=N\NC2=CS(=O)(=O)C=C2)c1	-2%[5.75 µM]
75	CCN(CC)CCCN1C(=O)C(O)=C(C(=O)c2ccco2)C1c1ccc(OC(C)C)cc1 (stereo not drawn)	17%
76	CCOC(=O)N1CCN(C(=O)CCSc2ccc(C)cc2)CC1	43%
77	CC1CCCCN1C(=O)CSc1nc(-c2ccccc2)cc(=O)[nH]1 (stereo not drawn)	8%
78	O=C(CCNS(=O)(=O)c1ccc(Cl)cc1)NCc1cccnc1	-7%
79	Cn1c(SCc2ccccn2)nnc1-c1cnccn1	-18%
80	Cc1ccc(-c2cn3cccnc3n2)cc1NC(=O)c1c(-c2ccccc2Cl)noc1C	127%
81	CCOC(=O)C1CCN(CC(O)COc2ccc(C(C)(C)C)cc2)CC1 (stereo not drawn)	60%
82	CCCCOC(=O)C1C2C=C[C@]3(CN(CCCOC)C(=O)[C@H]13)O2 (stereo partly drawn)	-18%
83	O=S(=O)(c1ccc(Oc2ccc(Br)cc2)cc1)N1CCOCC1	44%
84	CN(C)c1nc(Oc2ccc(C(=O)OCC(=O)Nc3ccccc3)cc2)nc(N(C)C)n1	29%
85	O=C(CSc1nnc(-c2ccc(Cl)s2)o1)N1CCOCC1	0%
86	COC(=O)c1cc(Br)c(=O)n(-c2ccc(OC)cc2)c1	-15%
87	CCn1c(SCCN2CCCCC2)nnc1-c1ccc(S(=O)(=O)N2CCOCC2)cc1	8%
88	CCOC(=O)CN1C(=O)SC(CC(=O)Nc2nccs2)C1=O (stereo not drawn)	9%
89	Cc1nn(-c2cc(Cl)ccc2N)c(=O)c2ccccc12	4%
90	O=C(c1csc2c1CCCC2)N1CCN(c2ncccn2)CC1	37%
91	COc1nc(OC)nc(N2CCC(C(=O)Nc3cccc4c3CCCC4)CC2)n1	61%
92	C/C(=C\C1CCCCC1)C(NC(=O)c1cccnc1)c1ccc(-c2ccccc2)cc1 (stereo not drawn)	34%
93	CC(C)NC(=O)CCS(=O)(=O)c1ccc(Br)s1	2%
94	CCOc1ccc(OCC)c(NC(=O)CN2CCN(c3cc(C)ccc3C)CC2)c1	28%
95	CCN(CC)C(=O)C1CCN(CC2CC=CCC2)CC1 (stereo not drawn)	-12%
96	O=C(CSc1nnc(-c2cccs2)n1Cc1ccco1)c1ccc2c(c1)OCO2	4%
97	CCCC(=O)N1c2ccc(-c3csc(N)n3)cc2CC1C (stereo not drawn)	3%
98	CCOC(=O)c1cccc(-n2c(C)nc3ccccc3c2=O)c1	13%
99	Cc1cccc(C)c1NC(=O)[C@H](C)N	-9%[12.8 µM]
100	Cc1ccc2nc(NCc3ccco3)c(C=NCc3ccco3)c(=O)n2c1	7%
101	Cc1cc(C)cc(OCC(=O)NCc2nc(-c3ccccc3)no2)c1	37%
102	CSc1ccccc1NC(=O)CN(Cc1ccc(Cl)cc1)S(C)(=O)=O	32%
103	Cc1cc(Br)ccc1NC(=O)CNC(=O)CN(C)Cc1nc2ccccc2c(=O)[nH]1	107%
104	COC(=O)Nc1nc(C)c(C(=O)N(C)C)s1	-12%
105	CCN(CC)S(=O)(=O)c1ccc(S(=O)(=O)N(Cc2ccccn2)Cc2ccco2)cc1	56%
106	CC1CC(C)CN(C(=O)COC(=O)CNS(=O)(=O)/C=C/c2ccccc2)C1 (stereo not drawn)	47%
107	c1ccc(Cn2nnnc2C(c2ccccn2)N2CCOCC2)cc1 (stereo not drawn)	6%
108	O=C(NC1CCCCC1)NC1CCN(S(=O)(=O)Cc2ccccc2)CC1	?
109	CC(c1ccco1)N(C(=O)c1ccc(Cl)s1)c1ccccn1 (stereo not drawn)	14%
110	CS/C(=N\S(=O)(=O)c1cccs1)Nc1ccc(N2CCOCC2)cc1	7%
111	CC#C[C@@]1(O)CC[C@H]2[C@@H]3CCC4=CC(=O)CCC4=C3[C@H](c3ccc(N(C)C)cc3)C[C@]21C	90%[12.8 µM]
112	COc1ccc(-c2noc(CCCc3ccccc3)n2)cc1OC	90%
113	Cc1nc2ccccc2c2oc(C(=O)NCCN3CCN(C)CC3)cc12	-16%
114	CCC(C)(C)N1CC(=O)N(Cc2ccccc2)C(c2ccc(OC)cc2)C1=O (stereo not drawn)	16%
115	O=C(COC(=O)C1CCN(C(=O)c2ccc(Cl)cc2)CC1)c1ccco1	46%
116	CCOC(=O)N1CCN(C(=O)CS(=O)(=O)Cc2nc(-c3ccccc3C)oc2C)CC1	126%
117	Cc1cccc(-n2c(CN3C(=O)c4ccccc4C3=O)nc3ccccc3c2=O)n1	-2%
118	O=C(Nc1ccc(F)cc1)N(CCCN1CCOCC1)Cc1cc2cc3c(cc2[nH]c1=O)OCCO3	84%
119	O=C(NC1CCCCC1)C(c1ccc(Cl)cc1)N(C(=O)c1cnccn1)c1ccc2c(c1)OCO2 (stereo not drawn)	106%
120	Nc1ccc(O)c([N+](=O)[O-])c1	-12%

Carrying on.
nr	compound	AmpC inh no det
121	C=CCn1c(=O)c(C#N)cc2c(=O)n3ccccc3nc21	-1%
122	CCOC(=O)Cn1c(S(=O)(=O)Cc2ccccc2)nc2ccccc21	7%
123	CCOc1ccc(C(=O)c2nc3c(n2O)CCCC3)cc1	-6%
124	CCOc1ccc(CCNC(=O)C2CC(=O)N(C3CCCC3)C2)cc1OCC (stereo not drawn)	42%
125	COc1ccc(-n2nnnc2SCC(=O)c2cccc(OC)c2)cc1	-7%
126	Cc1cc(=O)oc2cc(OCC(=O)N3CCCc4ccccc43)ccc12	39%
